VDR inhibitor = vitamin D3 receptor (human) inhibition; VDR-SRC2-3 peptide fluorescence polarization, 2 h; Potency, µM, for inactives: max response, negative = inhibition, actives largely listed as inhibitors; 400,000 tested, 0.93% active; AID 504847; active = well fitted inhibition curve with a large enough effect; inconclusive = small, poorly fitted or top-dose-only effect, or another doubt; inactive = no such curve, though single readings can be large or run the other way; note: series mostly up to about 120 µM
Target sequence (P11473 whole entry, looked up): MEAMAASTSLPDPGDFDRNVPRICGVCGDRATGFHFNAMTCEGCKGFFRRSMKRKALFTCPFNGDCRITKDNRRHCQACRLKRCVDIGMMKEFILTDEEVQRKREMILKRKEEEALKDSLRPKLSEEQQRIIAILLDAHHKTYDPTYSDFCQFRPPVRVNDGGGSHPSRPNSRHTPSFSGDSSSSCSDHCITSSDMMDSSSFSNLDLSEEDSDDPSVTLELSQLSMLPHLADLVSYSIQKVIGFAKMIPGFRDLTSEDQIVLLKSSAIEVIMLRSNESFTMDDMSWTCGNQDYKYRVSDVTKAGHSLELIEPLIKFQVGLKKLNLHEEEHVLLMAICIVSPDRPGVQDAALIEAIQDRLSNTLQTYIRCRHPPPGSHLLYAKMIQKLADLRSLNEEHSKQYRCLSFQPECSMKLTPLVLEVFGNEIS
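Compounds are added to VDR with labelled SRC2-3 coactivator peptide and held 2 h at room temperature. Inhibition of the VDR–peptide interaction is then read as a change in fluorescence polarization.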
Starred values were filed as active, the others as inactive; u = inconclusive; & = joins results of further samples. % is set by controls: 0 for no effect and ±100 for the full control effect; potency is the fitted concentration of half-maximal effect. A portion of the library; the hit share may differ from the screen's.

SMILES	VDR inhibitor
Cc1ccc(C)c(NS(=O)(=O)c2cc(C(=O)Nc3ccccc3-c3ccccc3)ccc2Cl)c1	5%
Cc1cnc(C(=O)Nc2ccc(-n3cnnn3)cc2)cn1	4%
CCC(C)Sc1nnc(CSc2nc3nc(C)cc(C)n3n2)o1 (stereo not drawn)	-14%
CCOc1ccccc1CNC(CC)CO (stereo not drawn)	5%
O=C(NCCC1=CCCCC1)C1CCN(S(=O)(=O)c2ccc(-n3cnnn3)cc2)CC1	-8%
C=CCn1nnnc1SCC(=O)Nc1ccc(C(=O)OC)cc1	u
Cc1ccccc1OC1C(=O)N(Cc2ccc3c(c2)OCO3)C1c1sccc1C (stereo not drawn)	7%
COc1ccc(S(=O)(=O)N2c3ccccc3OCC2CC(=O)O)cc1 (stereo not drawn)	u
O=C(NCc1ccco1)c1ccc(-c2cccc(Cl)c2)o1	-9%
Cc1cc(C)nc(SCC(=O)N/N=C/c2cccn2-c2cccc(C(F)(F)F)c2)n1	-11%

Part of the list above, with the structure last:
VDR inhibitor	canonical_smiles
-8%	O=C(NCCC1=CCCCC1)C1CCN(S(=O)(=O)c2ccc(-n3cnnn3)cc2)CC1
u	C=CCn1nnnc1SCC(=O)Nc1ccc(C(=O)OC)cc1
7%	Cc1ccccc1OC1C(=O)N(Cc2ccc3c(c2)OCO3)C1c1sccc1C (stereo not drawn)
u	COc1ccc(S(=O)(=O)N2c3ccccc3OCC2CC(=O)O)cc1 (stereo not drawn)
-9%	O=C(NCc1ccco1)c1ccc(-c2cccc(Cl)c2)o1
-11%	Cc1cc(C)nc(SCC(=O)N/N=C/c2cccn2-c2cccc(C(F)(F)F)c2)n1

Additional entries follow.
SMILES	VDR inhibitor
O=C(CN1C(=O)CCS(=O)(=O)c2ccccc21)NCc1ccc(F)cc1	-10%
Cc1ccccc1CCNC(=O)c1ccc2c(c1)c(C)c(C)n2Cc1ccccc1	1%
Cc1ccc(S(=O)(=O)Nc2ccc(Br)cc2/C=N/n2cnnc2)cc1	14%
CCCCCN(C(=O)COC(=O)Cc1c(C)nc2ccccc2c1C)c1c(N)n(CCCC)c(=O)[nH]c1=O	-7%
CC(C)(C)c1ccc(C(=O)Oc2ccccc2CCC(=O)O)cc1	3%
CC1=NNC(=O)C1CC(=O)N/N=C(\C)c1cccs1 (stereo not drawn)	2%
COc1cccc(-c2nnc(SCC(=O)NC3CCCCC3)o2)c1	u
Cc1cccc(CCNC(=O)CCc2c(C)nc3c4c(C)cc(C)nc4nn3c2C)c1	0%
Cc1ccc(CC(=O)Nc2cccnc2)cc1	-14%
CCNC(=O)/C(C#N)=C/c1c(N2CCN(Cc3ccc4c(c3)OCO4)CC2)nc2c(C)cccn2c1=O	13%
O=C(NCc1ccccc1F)C1CCN(C(=O)Nc2ccc(F)cc2)CC1	-11%
O=C(NCc1cccnc1)c1ccc2c(c1)N(Cc1ccccc1)CCS2	-4%
CCO[C@@H]1OC(C(N)=O)=C[C@H](c2ccc(Br)cc2)[C@H]1CCCO	3%
Fc1c(F)c(F)c(/C=N/NC(=S)Nc2cccnc2)c(F)c1F	-15%
CC1(C)CC(=O)C=C(Nc2ccccc2F)C1	2%
CCc1ccccc1NC(=O)N1CCC(CN2CCc3ccccc3C2)CC1	16%
NC(=O)CSc1nnc(-c2cccc(S(=O)(=O)N3CCCCC3)c2)o1	10%
CC1(C)CC(CC(=O)O)(c2ccccc2)CCO1 (stereo not drawn)	6%
COc1cccc(NC(=O)Cn2c(=O)oc3ccccc32)c1	23%
Clc1ccccc1COc1ccc(/C=N/n2cnnc2)cc1	-3%
Cc1ccc(-n2nc(C)c(C(=O)NCCCN3CCN(c4ccccc4F)CC3)c2-n2cccc2)cc1	-1%
COc1cccc(NC(=O)Cn2nc3c4ccccc4n(Cc4cccc(F)c4)cc-3c2=O)c1	3%
COc1ccc(/C(C)=N/NC(=O)c2ccc(N(C)C)cc2)cc1	-5%
CCOc1ccccc1NC(=O)c1c(NCc2cccs2)sc2c1CCC(C)C2 (stereo not drawn)	10%
O=C(CCCCCNS(=O)(=O)c1ccc(Br)cc1)NCCN1CCOCC1	-17%
O=C(CSc1ccsc1[N+](=O)[O-])N1CCN(c2ccccc2)CC1	-23%
Cc1ccc(-c2cc(C(=O)NCc3ccccc3Cl)c3ccccc3n2)cc1C	-9%
CCCN(CCC)C(=O)Cn1c(SCc2cccc(C(F)(F)F)c2)nc2cccnc21	13%
NC(=O)c1ccc[n+](Cc2ccccc2)c1	-24%
COCCNC(=O)CSc1nc2ccccc2c(=O)n1CCC(=O)N1CCN(c2ccccc2)CC1	-20%
CCCc1nnc(N2C(=O)c3oc4ccc(F)cc4c(=O)c3C2c2ccc(C(=O)OC)cc2)s1 (stereo not drawn)	5%
CCC(=O)N/C(N)=N/c1nc(C)c2cc(OC)ccc2n1	-9%
CC(=O)Nc1ccc(S(=O)(=O)NC2CCCCCC2)cc1	-19%
O=C1CC2(CCN(C(=O)COc3ccccc3)CC2)Oc2ccccc21	19%
COc1ccc(CC(NC(C)=O)C(=O)NC2CCN(c3nc(C)cc(C)c3C#N)CC2)c(OC)c1 (stereo not drawn)	-12%
COCCCNC(CC(=O)Nc1cc(C)cc(C)c1)C(=O)O (stereo not drawn)	-12%
O=C(NCCCN1CCN(CCCNC(=O)c2cccc(Cl)c2)CC1)c1cccc(Cl)c1	-3%
CC(C)c1ccccc1OCC(=O)NCC(c1cccs1)N1CCOCC1 (stereo not drawn)	-4%
O=[N+]([O-])c1cccnc1NCCc1c[nH]c2ccccc12	-1%
COc1ccccc1NC(=O)COc1ccccc1C(=O)Nc1ccccc1	-19%

Looked up above.
For VDR inhibitor, CC(C)c1ccccc1OCC(=O)NCC(c1cccs1)N1CCOCC1 (stereo not drawn) shows -4%
For VDR inhibitor, COCCCNC(CC(=O)Nc1cc(C)cc(C)c1)C(=O)O (stereo not drawn) shows -12%

Next compounds follow.
SMILES	VDR inhibitor
O=C(O)COc1ccccc1/C=N/NC(=O)Cc1csc(Nc2cccc(C(F)(F)F)c2)n1	-28%
COc1ccccc1CNC(=O)C(CCSC)NS(=O)(=O)c1ccc2c(c1)oc(=O)n2C (stereo not drawn)	3%
O=S(=O)(Nc1nc2ccccc2nc1NCC1CCCO1)c1ccc(F)cc1 (stereo not drawn)	-8%
Cc1cc(C)c(S(=O)(=O)NCC(=O)NCc2ccccn2)c(C)c1	14%
COc1ccc(OC)c(NC(=O)COC(=O)CCCN2C(=O)c3ccccc3C2=O)c1	-4%
Cc1nc2ncnn2c(C)c1Cc1cccc(C(F)(F)F)c1	-14%
COc1ccc(NC(=S)N2CCC(c3nc4ccccc4o3)CC2)c(OC)c1	7%
COc1ccc(NC(=O)NCCc2c(C)nn(C)c2C)c(OC)c1	-14%
CC(C)C(=O)Nc1cccc(C(=O)Nc2nnc(C(C)(C)C)s2)c1	-8%
O=C(N/N=C/c1ccccc1OC(=O)N1CCOCC1)c1cccs1	1%
O=c1c2ccccc2oc2cc(OCc3cccc(F)c3)cc(O)c12	-9%
COCCNC(=O)Cn1c(-c2cccs2)cc2cc(Cl)ccc21	10%
O=C(CSC1=NS(=O)(=O)c2cc(F)ccc2N1)NCc1ccccc1Cl	0%
O=[N+]([O-])c1ccc(N2CCCCC2)c(Cl)c1N1CCCCC1	-17%
Cc1c(OCC(=O)NCCCN2CCOCC2)ccc2c1oc(=O)c1ccccc12	2%
CCCNC(=O)COC(=O)c1ccccc1C(=O)N(C)C1CCCCC1	9%
CCc1ccc(NC(=O)COC(=O)CCCC2=NS(=O)(=O)c3ccccc3N2)cc1	-13%&3%
CCC1(c2ccccc2)SC(N)=NC1=O (stereo not drawn)	-2%
COCCn1nnnc1C(c1ccc(OC)cc1OC)N1CCN(c2ccccc2)CC1 (stereo not drawn)	3%
COc1ccc(N=Cc2c[nH][nH]c2=O)cc1	6%
COc1ccccc1OCC(=O)NNC(=S)NC(=O)c1ccco1	1%
COc1ccc(/C(C)=N/NC(=O)c2nnn(-c3nonc3N)c2CN(C)c2ccccc2)cc1	-6%
O=C(Nc1nnc(-c2cccs2)o1)c1ccco1	2%
CC(=O)c1ccc(NC(=O)c2ccc(COc3ccccc3[N+](=O)[O-])o2)cc1	-18%
CCc1ccc2[nH]c(=O)c(C(c3nnnn3CCOC)N3CCN(c4ccccc4F)CC3)cc2c1 (stereo not drawn)	1%
C=CC[C@H](CC(=O)OC(C)(C)C)C(=O)OC[C@H]1CCCN1C(=O)[C@H](CC=C)CC(=O)N(CCO)Cc1ccccc1	17%
O=C(CCc1nnc2ccc(NCc3ccccc3Cl)nn12)NC1CCCC1	-1%
CC(C)c1cc(C(=O)N/N=C/c2ccco2)n[nH]1	-16%
O=C(CCC(=O)Nc1nnc(C2CCCCC2)s1)NCc1cccs1	-10%
COc1ccc(CN2CCNC(=O)C2CC(=O)N(C)C2CCOCC2)c(F)c1 (stereo not drawn)	9%
CC(Oc1cccc(Cl)c1)C(=O)Nc1cc(S(=O)(=O)N2CCCCC2)ccc1N1CCOCC1 (stereo not drawn)	-11%
COc1ccc2oc(C(F)(F)C(F)(F)F)cc(=O)c2c1	-6%
Cc1ccc(NC(=O)Cc2ccc(-c3ccccc3)cc2)nc1	-7%
CCC(CO)Oc1cc(NC(=O)c2ccccc2C)c2ncn(C(C)C)c2c1 (stereo not drawn)	-11%
Cc1[nH]c2ccccc2c1/C=N/NC(=O)Nc1ccccc1	-10%
Cc1cc(C)n(-c2nnc(Cl)c3ccccc23)n1	2%
CCCC(=O)N(C)c1nnc(-c2ccc(OC)cc2)s1	-11%
O=C(O)c1ccc(-c2noc(-c3ccccc3F)n2)cc1	-7%
O=C(Nc1ccc(S(=O)(=O)N2CCCCC2)cc1)c1ccccc1Cl	-17%
COc1cccc(C(=O)N2N=C(c3cccc(OC)c3)CC2(O)C(F)(F)F)c1 (stereo not drawn)	-6%
CCC1CN(S(=O)(=O)c2cc(-c3cc(C)no3)ccc2C)c2cc(C)ccc2O1 (stereo not drawn)	11%
C/C=C(\C)C(=O)NCCN1C2=NC[C@@H](C)N2C[C@H]1Cc1ccc(O)cc1	-9%
N#CNC1=NCN(Cc2ccccc2)CN1	12%
CCOC(=O)c1oc2cc(O)cc(C)c2c(=O)c1-c1cscn1	5%
CCOC(=O)Cc1csc(NC(=O)CCNS(=O)(=O)c2ccc3c(c2)CCC(=O)N3)n1	8%
COc1ccc(N2CCN(S(=O)(=O)c3ccc(-n4cnnn4)c(C)c3)CC2)cc1	3%
CC(OC(=O)C1CCN(S(=O)(=O)c2ccccc2)CC1)C(=O)Nc1ncc(Cl)cc1Cl (stereo not drawn)	7%
CCOC(=O)c1ccccc1NC(=O)COC(=O)Cc1ccccc1F	3%
CCCC(=O)NC(=S)Nc1ccccc1F	-2%
CCOC(=O)c1cc(NC(=O)Nc2nccs2)c(C)nc1C	17%
(continued)
SMILES	VDR inhibitor
O=C(Nc1ccc(F)cc1F)c1cc(Cl)sc1Cl	-9%
COc1ccc(C2(C)NC(=O)N(CC(=O)c3cc(C)n(C4CC4)c3C)C2=O)cc1OC (stereo not drawn)	-4%
CC(=O)Nc1sc(-c2ccc(Cl)cc2)nc1-c1ccccc1	-17%
O=C(NC1CCCCC1)C(c1ccccc1F)N(C(=O)c1csnn1)C1CCCC1 (stereo not drawn)	12%
CC1CCN(CCCNC(=O)CN2C(=O)CSc3ccc(S(=O)(=O)N4CCCCC4)cc32)CC1	2%&5%
COc1ccc2cc(CCNC(=O)CC(C)(C)C)c(=O)[nH]c2c1	13%
COc1ccc2c(c1OC)C(=O)OC2Nc1nc(-c2cc3cc([N+](=O)[O-])ccc3oc2=O)cs1 (stereo not drawn)	-13%
CCCCCc1c(C)nc(SCC(=O)O)[nH]c1=O	-6%
COc1ccccc1N1CCN(Cc2c[nH]c3ccccc23)CC1	5%
Cc1ccc([N+](=O)[O-])cc1S(=O)(=O)NCCc1c(C)[nH]c2ccccc12	4%
O=C(CSc1nc(-c2cccs2)cc(C(F)(F)F)n1)NCc1ccccc1	-4%
Cc1ccc(-c2c(C(=O)N3CCN(c4cc(Cl)ccc4C)CC3)oc(=O)c3ccccc23)cc1	-8%
Cc1ccc(/C=N/N=C/c2ccc(C)s2)s1	-9%
CC1CN(C(=O)CCC(=O)NCc2ccccc2Cl)c2ccccc2S1 (stereo not drawn)	-5%
Cc1nc2ccccn2c1/C(O)=C1\C(=O)C(=O)N(CCN2CCOCC2)C1c1ccncc1 (stereo not drawn)	14%
COc1ccc(Nc2cc(Cl)ccc2C(=O)O)cn1	4%
CC(=O)c1c(N2CCOCC2)nc2ccc(Cl)cc2c1-c1ccccc1	8%
CCOc1ccc(C(CCc2ccccc2)NC(=O)c2ccccc2F)cc1OCC (stereo not drawn)	-5%
CCOc1ccc(C(=O)Nc2ccc3nc(SCC(=O)N4CCCC4)sc3c2)cc1	7%
COc1ccc(CC(=O)NC(c2ccccc2)c2ccccc2)cc1S(=O)(=O)N1CCOCC1	-1%

The last 5 compounds of the part above come first, to join the parts.
SMILES	VDR inhibitor
COc1ccc(Nc2cc(Cl)ccc2C(=O)O)cn1	4%
CC(=O)c1c(N2CCOCC2)nc2ccc(Cl)cc2c1-c1ccccc1	8%
CCOc1ccc(C(CCc2ccccc2)NC(=O)c2ccccc2F)cc1OCC (stereo not drawn)	-5%
CCOc1ccc(C(=O)Nc2ccc3nc(SCC(=O)N4CCCC4)sc3c2)cc1	7%
COc1ccc(CC(=O)NC(c2ccccc2)c2ccccc2)cc1S(=O)(=O)N1CCOCC1	-1%
O=C(CCn1cnc2onc(-c3ccc(F)cc3)c2c1=O)N1CCN(c2ccccc2)CC1	7%
O=C(CN1CCCN(S(=O)(=O)c2ccc(F)cc2)CC1)Nc1c(Cl)cccc1Cl	-10%
Cc1nn(CC(=O)N(C)C2CCS(=O)(=O)C2)c(C)c1S(=O)(=O)N(C)C (stereo not drawn)	-6%
O=C(NCCCn1ccnc1)C(=O)NCC(c1ccco1)N1CCN(c2ccccc2)CC1 (stereo not drawn)	-4%

Source: PubChem (National Center for Advancing Translational Sciences (NCATS))
